# Mtb bLac sens: beta-lactam sensitization of Mtb H37Rv. inhibition, % at 25 µM. actives 0.27% (n = 330,000). AID 434955. M. tuberculosis H37Rv growth with meropenem, percent inhibition; hits of this screen are not shown here;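 active means about 74% or more and at least 40 points above the plate without the antibiotic, then above 30% in a dose series; inconclusive means first-round hits that could not be retested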;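 further: growth measured after seven days incubation then overnight dye step; 0% = bacteria only wells and 100% = bacteria with antibiotic; twin plates without the antibiotic show which effects depend on it; some results filed as inactive read as strong as hits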
# RecA intein inh: blocks M. tuberculosis RecA intein splicing | actives 0.75% (n = 290,000) | AID 2221 | cell-free RecA intein splicing, fluorescence | inhibition, %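 (about 9 µM by stock and volumes)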; in the data active means inhibition above about 30%; inconclusive means no clear call, values can overlap the other calls;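 further: 0% = vehicle wells and 100% = reference inhibitor control wells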
# Target sequence (P9WHJ3 whole entry, looked up): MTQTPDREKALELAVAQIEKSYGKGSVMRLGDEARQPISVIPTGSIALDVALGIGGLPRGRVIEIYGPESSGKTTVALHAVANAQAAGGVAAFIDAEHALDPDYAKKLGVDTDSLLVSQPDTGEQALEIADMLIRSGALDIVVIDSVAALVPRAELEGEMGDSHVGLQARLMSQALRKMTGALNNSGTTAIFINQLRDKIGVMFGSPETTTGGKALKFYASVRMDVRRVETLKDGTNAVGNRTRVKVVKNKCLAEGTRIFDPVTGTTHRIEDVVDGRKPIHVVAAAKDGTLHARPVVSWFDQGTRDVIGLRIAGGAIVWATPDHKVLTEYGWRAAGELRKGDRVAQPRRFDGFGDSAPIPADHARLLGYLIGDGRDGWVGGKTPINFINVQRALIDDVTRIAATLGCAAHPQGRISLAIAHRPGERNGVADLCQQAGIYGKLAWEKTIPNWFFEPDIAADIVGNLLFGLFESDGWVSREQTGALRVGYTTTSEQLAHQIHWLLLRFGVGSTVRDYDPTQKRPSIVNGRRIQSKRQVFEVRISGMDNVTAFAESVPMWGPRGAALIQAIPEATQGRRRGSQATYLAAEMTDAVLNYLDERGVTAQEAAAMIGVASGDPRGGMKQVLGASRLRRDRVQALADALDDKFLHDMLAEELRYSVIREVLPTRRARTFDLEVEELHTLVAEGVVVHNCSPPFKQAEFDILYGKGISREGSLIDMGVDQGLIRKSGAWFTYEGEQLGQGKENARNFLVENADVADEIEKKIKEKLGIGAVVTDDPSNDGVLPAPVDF
# Mtb growth: M. tuberculosis H37Rv growth inhibitors, H37Rv strain (AID 1626); M. tuberculosis H37Rv growth inhibition; higher % means a stronger effect; one-dose inhibition, % at 10 µM; IC50 in µM for titrated hits; actives 0.95% (n = 220,000);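 active means confirmed in a dose series; inconclusive means inhibition above 80% but not taken into the dose series; inactive means below 80% or under 30% at every dose of the series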;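 further: bacteria incubated seven days before Alamar blue readout; 0% = bacteria only wells and 100% = bacteria with antibiotic wells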
# Arbovirus inh: arbovirus infection inhibition | arbovirus infection cell-based antiviral screen | inhibition, % at 10 µM | actives 0.37% (n = 200,000) | AID 1251;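 active means inhibition from about 30%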;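 further: bluetongue infection of BSR cells; cell survival read as ATP light after 72 h; 0% = infected wells without compound and 100% = uninfected wells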
# YopH PTP inh: YopH (Yersinia) phosphatase inhibition; fluorescence Ex485/Em525; inhibition, %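 (about 10 µM by stock and volumes)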; actives 0.16% (n = 140,000);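 active means inhibition of 50% or more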;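 further: controls were vehicle for no effect and minimum signal wells for full effect; inactives centre near -20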
# Arbovirus inh repeat: recorded beside Arbovirus inh, whose call it bears; inhibition, %; measured here: 10K subset replicate screen; many hits read low in the repeat;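 first of two repeat runs on a subset; 0% = infected and 100% = uninfected wells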
# * hit, by the source's call; ? = inconclusive; . = no result given. An excerpt; the hit share may differ from the screen's.
SMILES,Mtb bLac sens,RecA intein inh,Mtb growth,Arbovirus inh,YopH PTP inh,others
O=C(N/N=C/c1ccc(OC(F)F)cc1OC(F)F)NC1CCCCC1,35,-3.4,23%,-7,.,
Cc1nn(Cc2ccccc2)c(C)c1C(=O)OCC(=O)Nc1cc(S(C)(=O)=O)ccc1Cl,1,1.5,-5%,4,.,
COCCNC(=O)C(c1cccnc1)N(Cc1ccc(C)cc1)C(=O)Cn1nnc2ccccc21 (centres undefined),1,-4.9,1%,8,.,
CC(C)c1ccc(/C=N/N2CCN(c3ccccn3)CC2)cc1,-7,1.2,-12%,.,.,
OC1(c2cccs2)CN(c2ccc(Cl)cc2)C2=[N+]1CCCC2 (centres undefined),1,-3.4,2%,-13,.,
CCC(C)C(=O)Nc1ccc(S(=O)(=O)N2CCCC2)cc1 (centres undefined),0,1.0,.,.,.,
Cc1cc(C)cc(NC(=O)CN2C(=O)COc3ccc(S(=O)(=O)N4CCCC4)cc32)c1,4,0.5,.,.,.,
CCOc1ccc(NC(=O)CSc2nnc(C)n2CC)cc1,4,1.3,.,.,.,
O=c1[nH]c(O)c(C=Nc2cc(F)cc(F)c2)c(=O)[nH]1,-5,-3.0,.,.,.,
O=C(NC(=S)Nc1ccccc1Br)C1CCCC1,-9,-0.5,.,.,.,
CN(C)c1ccc(N2C(=O)CC(c3ccccc3)CC2=O)cc1,6,-1.9,-7%,.,.,
O=C(CSc1ccc(Cl)cc1)Nc1ccc(NC(=O)c2ccco2)cc1,-5,0.0,-13%,-8,-15,
Cc1cc(C)c2c(c1)-c1c(ssc1=S)C(C)(C)N2C(=O)CSc1nncn1C,-2,46*,1%,-2,-32,
COC(=O)Cc1c(C)c2ccc(OCC(=O)N3CCOCC3)cc2oc1=O,3,0.8,-14%,7,1,
Cc1ccc(OCC(=O)NC(C)c2ccccc2)cc1 (centres undefined),-3,1.8,.,.,.,
NC(=O)c1ccc(NC(=O)COC(=O)c2c3c(nc4ccccc24)/C(=C\c2ccc4c(c2)OCO4)CCC3)cc1,.,-138,?,-38,-30,
Cc1ccc(NC(=O)C(=O)NCCN2CCN(Cc3ccc([N+](=O)[O-])cc3)CC2)cc1,0,-3.8,-1%,-7,-15,
COc1ccc(OC)c(S(=O)(=O)Nc2ccc(C(C)=O)cc2)c1,-5,-1.2,0%,7,-8,
COc1ccc(C(=O)Nn2c(C)nc3ccccc3c2=O)c(OC)c1,-2,0.3,.,.,.,
Fc1ccc(Cn2c(SCc3ccc(F)c(C(F)(F)F)c3)nnc2C(F)(F)F)cc1,-8,8.0,10%,-20,-43,
O=C(NC(=S)NCC1CCCO1)c1ccc(Br)o1 (centres undefined),-3,0.7,3%,1,.,
Cc1cc(C)c(S(=O)(=O)N2CCOC2CNC(=O)C(=O)NCCN2CCOCC2)c(C)c1 (centres undefined),-3,1.5,.,.,.,
O=C(NCCN1CCN(c2ccccc2F)CC1)c1cccn2c(=O)c3ccccc3nc12,10,-32,-2%,-4,-25,
CC(C)c1ccccc1N1CC(C(=O)O)CC1=O (centres undefined),6,.,1%,3,-37,
COc1ccc(OCC(=O)OCC(=O)NCc2ccco2)cc1,3,1.0,-5%,-2,-18,
Cc1ccc(-c2c[n+](Cc3cccc(Cl)c3)c3n2CCC3)cc1,-2,-0.4,-1%,.,.,
C/C(CC(=O)Nc1cccc(C(F)(F)F)c1)=N\NC(=O)C(=O)NCC(C)C,-2,4.4,2%,8,.,
COc1ccc(CNC(=O)c2cc(-c3ccco3)on2)cc1,-6,1.1,7%,0,-32,
O=C(c1ccccc1F)c1cn(CC(=O)N2CCCC2)c2ccccc12,-4,-0.4,3%,4,13,
Cc1ccc(S(=O)(=O)N2CCOCC2)cc1C(=O)Nc1ccc2c(c1)CCC2,1,0.4,17%,9,-24,
CC(OC(=O)C1=COCCO1)C(=O)Nc1ccccc1C#N (centres undefined),14,-0.8,-7%,1,.,
Cc1cc(N2CCN(c3nc(-c4ccc([N+](=O)[O-])cc4)cs3)CC2)c2ccccc2n1,-1,0.5,-1%,4,.,
COCc1c(C(=O)N2CCN(Cc3c(F)cccc3Cl)CC2)oc2ccccc12,-7,6.8,.,.,.,
Cc1ccn(CCNC(=O)C2CCC(=O)N(Cc3ccc(Cl)cc3)C2)n1 (centres undefined),-9,0.6,.,.,.,
CCCC(C(=O)NCC1CCCO1)N(C(=O)CNS(=O)(=O)c1ccccc1)c1ccc(F)cc1 (centres undefined),7,2.9,.,.,.,
Cc1cccc(NC(=S)N(CCCN2CCOCC2)Cc2ccccn2)c1,-1,-7.6,7%,5,-15,
O=C(c1ccc(F)cc1)N1CCCC(c2nc(-c3cccs3)no2)C1 (centres undefined),1,4.4,0%,13,.,
CCN(CC)CCN1C(=O)C(=O)/C(=C(/O)c2ccc(S(=O)(=O)N3CCOCC3)cc2)C1c1ccc(C(C)C)cc1 (centres undefined),3,-0.2,.,.,.,
COc1ccc(C(=O)n2nc(-c3ccc(C)cc3)nc2N)cc1OC,2,0.5,-4%,-11,-14,
O=C(CN1CCOCC1)Nc1ncc(Br)cc1Br,0,-2.8,3%,-2,-6,
C=CCN1C(=O)C2(NNc3ccccc3O2)c2ccccc21 (centres undefined),100,8.9,?,-25,14,
COc1cccc(CNC(=O)CCNS(=O)(=O)c2ccc3[nH]c(=O)oc3c2)c1,-4,1.0,.,.,.,
CCOC(=O)C1CCN(S(=O)(=O)c2ccc3c(c2)CC(C)N3C(=O)C2CC2)CC1 (centres undefined),2,0.6,.,.,.,
O=C(CSc1nc(N2CCOCC2)nc(N2CCOCC2)n1)Nc1cccc(C(F)(F)F)c1,?,2.9,.,.,.,
O=C1[C@H]2C(c3ccccc3)=NN(c3ccccc3)[C@H]2C(=O)N1c1ccccc1,-2,-20,-3%,14,.,
CCOC(=O)C(CC)n1cnc2c(nnn2-c2ccccc2)c1=O (centres undefined),-12,5.4,.,.,.,
C=COCCNC(=O)C1CC(=O)N(c2ccc(C)cc2)C1 (centres undefined),-1,3.8,2%,2,-51,
CCC(CC)c1nnc(NC(=O)COc2ccc3c(C)cc(=O)oc3c2)s1,-16,-5.2,-11%,-12,-22,
C=CCNC(=O)C1CCN(S(=O)(=O)c2ccc3ccccc3c2)CC1,6,1.7,.,.,.,
COc1cccc(C2c3c(-c4ccccc4O)n[nH]c3C(=O)N2Cc2ccco2)c1 (centres undefined),-4,14,3%,.,.,

# The results go on.
SMILES,Mtb bLac sens,RecA intein inh,Mtb growth,Arbovirus inh,YopH PTP inh,others
c1ccc(Cn2nnnc2CN2CCN(Cc3ccc4c(c3)OCO4)CC2)cc1,-9,4.4,-1%,-14,-20,
CCOC(=O)C1=NN(c2ccccc2)C(=O)/C1=C\c1ccc(N(C)C)cc1,100,-4.3,2%,4,0,
COc1ccccc1CNC(=O)c1ccc(N(C)S(=O)(=O)c2ccc(C)cc2)cc1,0,-1.1,.,.,.,
CCc1cccc(CC)c1NC(=O)COC(=O)Cc1ccsc1,0,-0.4,5%,-9,-22,
c1ccc(SCc2nc(-c3cccnc3)no2)cc1,9,0.8,-21%,-4,-10,
Cn1c(CC(=O)Nc2ccccc2F)nnc1SCC(=O)NC1CCCCC1,8,0.4,.,.,.,
COc1ccc(Nc2cc(C)nc3nc(C)nn23)cc1Cl,3,2.1,-3%,8,2,Arbovirus inh repeat=-3
COc1ccc(Nc2nc(-c3cccs3)nc3ccccc23)c(OC)c1,13,-1.1,12%,5,-19,
O=C(O)C1Cc2[nH]cnc2C(c2cccc([N+](=O)[O-])c2)N1 (centres undefined),-3,-2.5,-5%,5,.,
CC1CCN(c2ccc(C(=O)Nc3ccc4c(c3)OCO4)cc2[N+](=O)[O-])CC1,65,6.8,20%,-24,-28,

# Gathered by group: those above containing a COOH group.
SMILES,Mtb bLac sens,RecA intein inh,Mtb growth,Arbovirus inh,YopH PTP inh,others
CC(C)c1ccccc1N1CC(C(=O)O)CC1=O (centres undefined),6,.,1%,3,-37,
O=C(O)C1Cc2[nH]cnc2C(c2cccc([N+](=O)[O-])c2)N1 (centres undefined),-3,-2.5,-5%,5,.,

# Further entries follow:
SMILES,Mtb bLac sens,RecA intein inh,Mtb growth,Arbovirus inh,YopH PTP inh,others
COc1ccc(-n2cnnc2SCC(=O)NC2CCCc3ccccc32)cc1 (centres undefined),-2,-0.4,4%,2,-34,
CCCCN(C)C(=O)C1CCN(Cc2ccc(OCc3ccccc3)cc2)CC1,4,-1.0,-7%,-22,40,
O=C(Nc1cccc(-c2ccc(N3CCCCC3)nn2)c1)c1ccc(Br)o1,38,10.0,.,.,.,
C=CCNC(=O)COC(=O)c1c2c(nc3ccccc13)CCC2,5,2.9,.,.,.,
Cc1cnc(NC(=O)c2sc3ccccc3c2Cl)s1,22,-8.0,3%,0,-28,
O=C(C1CCC1)N1CCc2cc(S(=O)(=O)Nc3ccc4c(c3)OCO4)ccc21,-2,-1.9,-5%,1,-15,
Cc1cccc(CSc2cn(CC(=O)N3CCOCC3)c3ccccc23)c1,10,9.4,-8%,1,-27,
O=C(CCCC(=O)OCC1CCCO1)OCC1CCCO1 (centres undefined),-7,-0.6,-1%,2,-18,
O=C(N/N=C/c1c[nH]c2ccccc12)C1CC1c1ccccc1 (centres undefined),7,0.4,5%,9,-30,
CCOc1ccc2[nH]cc(-c3csc(N)n3)c2c1,6,5.8,.,.,.,
C=CCNC(=O)c1ccccc1NC(=O)c1ccc(Cl)c(S(=O)(=O)Nc2ccccc2)c1,0,-2.1,-3%,-19,-27,
Cc1ccnc2nc(C(=O)N3CCN(S(=O)(=O)c4ccccc4)CC3)nn12,10,-1.2,-5%,7,-8,
COc1ccccc1CNC(=O)C(NC(=O)c1ccccc1)C(C)C (centres undefined),10,0.5,0%,-5,.,
CC1CCC2C(=O)N(c3ccc(Cc4ccncc4)cc3)C(=O)C2C1 (centres undefined),-3,2.3,-7%,6,.,
Cc1c(C(=O)OCC(=O)NCc2ccccc2)oc2ccccc12,4,-1.0,.,.,.,
CCS(=O)(=O)c1ccc2oc(SCC(=O)Nc3ccc(OC)cc3OC)nc2c1,5,-0.5,-3%,2,.,
O=C(Cc1ccccc1)NCC(=O)N/N=C/c1ccc([N+](=O)[O-])s1,98,-3.8,.,.,.,
COCCCNC(=S)N1CCC(NC(=O)Nc2ccc(C)cc2)CC1,1,1.4,0%,6,.,
C(=N\Nc1nc(Nc2ccccc2)nc(Nc2ccccc2)n1)/c1ccncc1,-1,-1.9,-4%,1,.,
CC(C)C(c1nnnn1Cc1ccccc1)N1CCc2ccccc2C1 (centres undefined),-7,9.8,-10%,-5,-9,
COc1cccc(C(=O)CN(C(=O)c2ccc(Cl)c(Cl)c2)N2C(=O)c3ccccc3C2=O)c1,0,0.8,-3%,8,-53,
Cc1cc(C(=O)NCc2ccc(F)cc2)c2ccccc2n1,-6,-2.5,.,.,.,
CC(=O)Nc1cc(-c2nn(CC(=O)N3CCCCC3)c(=O)c3ccccc23)ccc1N1CCOCC1,-13,-0.2,-2%,2,-32,
CC(=O)Nc1ccc(NC(=O)C(C)OC(=O)CCN=C2NS(=O)(=O)c3ccccc32)cc1 (centres undefined),-9,-0.2,.,.,.,
CC1CCCCN1CCNC(=O)c1ccc2c(c1)N(Cc1ccccc1F)C(=O)c1ccccc1S2=O (centres undefined),5,1.6,.,.,.,
O=C(CCNC(=O)Cn1ccc2ccccc2c1=O)NCCCN1CCN(c2ccccc2F)CC1,-9,-2.3,-7%,1,-47,
CCC(C)NC(=O)c1ccc2c(c1)N(Cc1ccccc1)C(=O)CS2 (centres undefined),3,-0.8,-3%,8,.,
O=C(CN1CCCCC1)N1c2ccccc2Sc2ccc(C(F)(F)F)cc21,9,.,3%,-1,-3,

# Entries listed so far that contain a Cl atom (ten):
SMILES,Mtb bLac sens,RecA intein inh,Mtb growth,Arbovirus inh,YopH PTP inh,others
Cc1nn(Cc2ccccc2)c(C)c1C(=O)OCC(=O)Nc1cc(S(C)(=O)=O)ccc1Cl,1,1.5,-5%,4,.,
OC1(c2cccs2)CN(c2ccc(Cl)cc2)C2=[N+]1CCCC2 (centres undefined),1,-3.4,2%,-13,.,
O=C(CSc1ccc(Cl)cc1)Nc1ccc(NC(=O)c2ccco2)cc1,-5,0.0,-13%,-8,-15,
Cc1ccc(-c2c[n+](Cc3cccc(Cl)c3)c3n2CCC3)cc1,-2,-0.4,-1%,.,.,
COCc1c(C(=O)N2CCN(Cc3c(F)cccc3Cl)CC2)oc2ccccc12,-7,6.8,.,.,.,
Cc1ccn(CCNC(=O)C2CCC(=O)N(Cc3ccc(Cl)cc3)C2)n1 (centres undefined),-9,0.6,.,.,.,
COc1ccc(Nc2cc(C)nc3nc(C)nn23)cc1Cl,3,2.1,-3%,8,2,Arbovirus inh repeat=-3
Cc1cnc(NC(=O)c2sc3ccccc3c2Cl)s1,22,-8.0,3%,0,-28,
C=CCNC(=O)c1ccccc1NC(=O)c1ccc(Cl)c(S(=O)(=O)Nc2ccccc2)c1,0,-2.1,-3%,-19,-27,
COc1cccc(C(=O)CN(C(=O)c2ccc(Cl)c(Cl)c2)N2C(=O)c3ccccc3C2=O)c1,0,0.8,-3%,8,-53,
